High-throughput results from PubChem.
Rango complex inh = Rango-importin beta binding inhibition | Q14974 | Rango CFP/YFP FRET sensor + importin beta, 45 min | Potency, µM (doses to about 92.2 µM), inactives show at the top dose inhibition of complex formation | actives 0.031% (n = 340,000); active = rising FRET ratio curve, often small or poorly fitted; inconclusive = mostly compound fluorescence or quenching in the first reads; inactive = flat curves in all reads;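 also: potency is read from the fitted curve at half-maximal effect; 0% = DMSO wells and 100% = buffer wells lacking importin beta; nearly all actives have a fitted effect of over 15% in size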
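FRET biosensor (snurportin 1 IBB flanked by EYFP and cerulean), 50 nM, with compound 5 min, then 0.125 microM importin beta in PBS, 1 mM DTT, 0.02% Tween-20, 0.1% BSA. CFP/YFP ratio read after 45 min at room temperature; pre-read flags interference.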
Rango release inh = inhibitors of RanGTP-induced Rango-importin beta complex dissociation; Biochemical FRET Rango-importin beta, RanGTP-induced dissociation; actives 0.071% (n = 340,000); Potency, µM (doses to about 46.1 µM), for inactives: top-dose activity change, negative = inhibition; active means falling FRET ratio curve, often poorly fitted, with flat reads before Ran was added; inconclusive means other falling curves, or compound fluorescence or quenching; inactive means flat or rising ratio curve;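 also: potency is read from the fitted curve at half-maximal effect; % of control where 0% means no effect; nearly all actives have a fitted effect of over 45% in size; -100% = wells without RanGTP and RCC1; the record marks most hits as doubtful in a second field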
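Compounds preincubate 5 min with complex of recombinant Rango and importin beta in PBS with 1 mM DTT. Ran (0.6 uM) loaded with 2 mM GTP plus 0.2 uM RCC1 starts dissociation; FRET is recorded 45 min later.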
GLA inh pH 4.5 = alpha-galactosidase A (human) inhibition, pH 4.5; P06280; purified enzyme, 4-MU-alpha-Gal fluorescence, pH 4.5; activity change, negative = inhibition, % at 105 µM; 230,000 tested, under 10 active; AID 1467; inconclusive = small, poorly fitted or top-dose-only inhibition, or a rising curve; inactive = flat fitted curve, though single readings scatter; no compound was filed as active;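 also: 0% = full activity with enzyme and -100% = basal without enzyme; dose as in the result columns while the protocol names 77 µM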
Target sequence (P06280 whole entry, looked up): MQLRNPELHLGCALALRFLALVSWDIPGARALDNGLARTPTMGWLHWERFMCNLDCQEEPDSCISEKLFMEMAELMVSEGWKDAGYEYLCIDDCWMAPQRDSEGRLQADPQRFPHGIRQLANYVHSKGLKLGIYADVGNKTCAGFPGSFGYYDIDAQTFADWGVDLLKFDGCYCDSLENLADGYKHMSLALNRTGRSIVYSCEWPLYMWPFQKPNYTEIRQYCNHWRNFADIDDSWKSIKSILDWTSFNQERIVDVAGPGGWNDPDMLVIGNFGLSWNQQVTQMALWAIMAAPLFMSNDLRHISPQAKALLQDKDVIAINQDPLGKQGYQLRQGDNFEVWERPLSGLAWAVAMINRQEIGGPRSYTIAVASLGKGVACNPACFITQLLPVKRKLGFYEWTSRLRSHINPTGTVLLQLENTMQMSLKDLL
miR-21 reporter = miR-21 reporter, rising signal. Potency, µM (series often up to 38.3 µM), without a hit: top-dose reporter change, positive = more light. 340,000 tested, under 10 active. HeLa miR-21 FLuc reporter, luciferase, 48 h; active = well fitted rising curve with a large enough effect; inconclusive = small, poorly fitted or top-dose-only effect; inactive = no such curve, though single readings can be large or run the other way;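 also: % of control where 0% means no effect; miR-21 action dims this reporter so a rising signal means less miR-21 action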
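Using DMEM plus 10% FBS, HeLa miR-21-FLuc cells are incubated with test compounds (final up to about 40uM) for 48 hours; firefly luciferase signal is then imaged following reagent-mediated lysis.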
The depositor's hits bear a star; u = inconclusive; x = not tested or not shown; & = joins results of further samples; [ ] = another dose, or the depositor's remark. These rows are one share of the data; the hit share may differ from the screen's.

SMILES	Rango complex inh	Rango release inh	GLA inh pH 4.5	miR-21 reporter
COc1cc(CNc2ccc(N3CCCC3)cc2)cc(Cl)c1OC	u	-9%	13	6%
O=C(c1ccc(Cl)s1)N1CCN(c2nc3ccccc3s2)CC1	3.1%	12%	3	-6%
Cc1sc(NC(=O)Cc2ccc3c(c2)OCO3)nc1-c1ccc2c(c1)CCN2C(=O)c1ccccc1F	u	36%	8	-28%
CCN(CC(=O)Nc1c(F)cccc1F)C(=O)C1CCC1	0.5%	0%	x	x
CC(=O)c1ccc(N/C=C\C(=O)c2ccc(C)cc2)cc1	u	u	-25	-64%
Cc1cc(N2CCCC2)nc(-c2ccccc2O)n1	0.3%	-13%	-12	-8%
O=C(COC(=O)c1cccc(Cl)c1Cl)NCCN1C(=O)CSC1=O	-1.7%	6%	2	-3%
C/C(Cn1nc([N+](=O)[O-])cc1C)=N\NC(=O)c1ccc(O)cc1O	-0.5%	-19%	8	-23%
O=C(Cc1ccccc1)N1CCC(c2ccccc2)C1 (stereo unspecified)	1.3%	6%	-3	-34%
COc1cccc(CN2CCN(S(=O)(=O)c3ccc(Cl)s3)CC2)c1	-0.8%	9%	x	-11%
O=C(O)C1CC(O)CN1S(=O)(=O)c1ccc2ccccc2c1 (stereo unspecified)	0.9%	1%	x	x
O=C(Nc1ccccc1N1CCCC1)c1cccc(S(=O)(=O)N2CCOCC2)c1	2.6%	22%	x	x
COc1cc(/C=N/NC(=O)COc2cccc(F)c2)ccc1OS(=O)(=O)c1ccc(C)cc1	-3.8%	-9%	-10	23%
COc1cc(C(=S)N2CCCC2)ccc1OCC(N)=O	-1.6%	13%	x	0%
CCc1nn(CCCC(=O)NCc2ccccc2C)c(=O)c2cc3occc3n12	-1.1%	-12%	x	-5%
CC1(c2nnc(-c3ccccc3)o2)CC(c2c(Cl)cccc2Cl)=NO1 (stereo unspecified)	0.5%	26%	x	x
COc1ccccc1N(CC(=O)NC1CCCCC1)C(=O)CCC(=O)Nc1ccccn1	0.5%	9%	2	-3%
CCCCCCCn1c2c(c(=N)c3c1CCC3)CCCC2	u	-27%	-3	u
Cc1cccc(C(=O)NNC(=O)c2ccc(Br)cc2)c1	-3.7%	4%	6	-28%
COc1ccccc1C1=CC(=O)CCC1	6.8%	9%	x	x
COc1ccc(C(=O)C2CC2)cc1	-2.7%	2%	x	x
O=C(Cn1cncn1)NCCCc1ccccc1	2.8%	22%	9	-2%
CCOC(=O)C1CCN(Cc2ccc(F)c(Br)c2)CC1	0.1%	1%	-23	-1%
COc1ccc(C(=O)N(Cc2cccs2)C2CCS(=O)(=O)C2)cc1 (stereo unspecified)	1.2%	1%	x	0%
O=C(C1=C[C@H](C2CCCCC2)C[C@H](OCCCCO)O1)N1CCOCC1	-0.3%	1%	2	-5%
Cc1ccc2c(c1)[C@H]1[C@H](CO2)[C@H](c2ccccc2)[C@]2(C)C(=O)Nc3cc(Cl)ccc3C(=O)N12	-1.5%	-9%	x	x
O=C(c1ccc(-n2cnnn2)cc1)N1CCN(C(c2ccccc2)c2ccccc2)CC1	-0.1%	31%	-9	10%
CC(=O)Nc1nc(SCC(=O)NCC2CCCO2)[nH]c(=O)c1NC(=O)c1cccs1 (stereo unspecified)	0.0%	11%	9	2%
CCOC(=O)c1cnc2ccc(F)cc2c1Nc1ccc2c(c1)OCCO2	1.8%	13%	8	16%
Cc1cc(C)n2nc(S(=O)(=O)N(C)c3ccccc3)nc2n1	-3.5%	26%	-3	-11%
COc1ccc(CNC(=O)c2cc(-c3ccccc3O)n[nH]2)cc1	2.0%	3%	3	0%
Cc1cc(=O)oc2cc(OCC(O)CN3CCc4ccccc4C3)ccc12 (stereo unspecified)	u	-2%	6	-14%
CCOC(=O)c1cc(S(=O)(=O)Nc2cccc(OC)c2)cn1C	-3.0%	-6%	x	9%
COc1ccccc1N1CCN(C(=O)c2cc3c(C)nc4ccccc4c3o2)CC1	2.6%	-4%	x	u
S=C(NNC(=S)NC1CC2C=CC1C2)NC1CC2C=CC1C2 (stereo unspecified)	0.5%	-12%	-9	-7%
O=C(COc1cccc2cccnc12)NNC(=O)Nc1ccccc1	0.7%	5%	4	-6%
COc1ccc(-c2nc(SCC(=O)N3CCCC3)n[nH]2)cc1	u	u	x	-13%
Cc1ccc(C(=O)NCC(=O)OCC(=O)Nc2cc(C)c(C)cc2[N+](=O)[O-])cc1	0.3%	25%	4	-7%
CN(C)CCCNCCCNC(=O)c1ccco1	0.8%&0.2%	-5%&-18%	-2	-2%
Cn1c(=O)[nH]c(=O)c2c1nc(CN1CCN(c3cccc(Cl)c3)CC1)n2Cc1ccccc1Cl	0.0%	-9%	5	-6%
CN(CC(=O)Nc1cccc(F)c1)C(=O)c1cc(S(=O)(=O)N2CCN(c3ccccc3)CC2)ccc1Cl	1.2%	7%	x	x
C=CCN(c1ccc(C(=O)NCCN2CCOCC2)cc1)S(C)(=O)=O	-2.2%	17%	x	4%
CCOCCCNC(=O)C(NC(=O)c1ccc2c(c1)OCO2)c1ccc(Cl)cc1 (stereo unspecified)	-1.2%	8%	1	-1%
O=C(CN1CCCCC1)NC(=O)Nc1ccccc1F	0.5%	-2%	x	x
O=C(Nc1ccccc1-c1ccccc1)c1ccccc1	-1.8%	9%	x	1%
COc1cccc(N2CCN(C(=O)C3CCN(S(=O)(=O)c4cccs4)CC3)CC2)c1	1.3%	5%	-4[21.1 µM]	1%
CO[C@H]1CC[C@@]2(C)[C@@H](CC[C@@H]3[C@@H]2CC[C@@]2(C)[C@H]3C[C@H](C(=O)O)O[C@]23CCCO3)C1	1.7%	5%	x	x
COC(=O)C1CCN(C(=O)COC(=O)c2n[nH]c3ccccc23)CC1	-1.2%	0%	-3	-25%
CC/C(=N/N=C(\CC)c1ccccc1)c1ccccc1	-0.6%	-17%	-12	-4%
CN(C)c1nc(N)nc(CSc2nc3c(c(=O)n(C)c(=O)n3C)n2Cc2ccccc2F)n1	-2.2%	-2%	2	1%
CC1=C(C(=O)Nc2cccc(C(=O)NC(C)c3ccccc3)c2)SCCO1 (stereo unspecified)	2.5%	14%	x	3%
COc1ccccc1CNC(=O)CN(c1ccc(C)cc1)S(=O)(=O)c1c(C)noc1C	7.7%	12%	x	9%&5%
CN1C(=O)C(N=Nc2ccc([N+](=O)[O-])cc2)SC1=S (stereo unspecified)	-3.6%	0%	x	x
CCN(CC)CCN(Cc1cc2cc(C)ccc2[nH]c1=O)C(=O)Nc1ccccc1OC	-2.5%	-14%	-3	-5%
CCN(CC(=O)Nc1c(F)cccc1F)C(=O)C1CCN(S(=O)(=O)c2ccc(C)c(C)c2)CC1	8.3%	3%	x	x
O=C(c1ccc(F)c(F)c1)N1CCC2(CC1)NCCc1[nH]cnc12	0.8%	7%	x	-5%
Cc1cc(/C=C(\C#N)C(=O)OCC#N)c(C)n1CC(C)C	-3.5%	-1%	4	-6%
Cc1ccc(S(=O)(=O)CC(=O)N(CCCN(C)C)c2nc3ccc(C)cc3s2)cc1	6.9%	-2%	x	x
N#C/C(C(N)=O)=c1/ccc2c(c1)N1C3=C(CCCC3)CC3CCCCC31N=2 (stereo unspecified)	0.7%	-1%	-3	u
Cc1cccc(/C=C/c2onc(C)c2S(=O)(=O)N2CCC(C(=O)N3CCCCCC3)CC2)c1	0.5%	-8%	x	-4%

(next part)
SMILES	Rango complex inh	Rango release inh	GLA inh pH 4.5	miR-21 reporter
O=C(Nc1nnc(SCc2cccc(F)c2)s1)c1ccco1	-3.1%	15%	4	-16%
COC(=O)c1c[nH]n2c(=O)c(C(C)C)c(C)nc12	-1.5%	-1%	-2[21.1 µM]	-1%
CC(C)(C)c1cc(C(=O)O)n[nH]1	2.0%	9%	0	1%
CCCc1cc(=O)[nH]c(SCc2cc(=O)oc3cc(C)c(C(C)C)cc23)n1	-3.6%	-9%	-1	-2%
Cc1ccc(-c2cc(-c3ccc(C)cc3O)[nH]n2)cc1	2.9%	12%	x	-30%
Cc1ccc2[nH]c(=O)c(CN(CCCN(C)C)C(=O)Nc3ccc(F)cc3)cc2c1	1.6%	5%	7	-2%
N#CC(c1ccc(=O)[nH]n1)c1ccc(Cl)cc1Cl (stereo unspecified)	-1.2%	-6%	-13	-3%
Cc1ccc2nc(NC(=O)C3CC3C)sc2c1 (stereo unspecified)	-1.1%	-4%	x	-18%
O=C(CN1C(=O)c2ccccc2C1=O)N1CCN(c2ccccn2)CC1	-0.6%	14%	-4	0%
Cc1c(N=NC2=C(O)CC(C)(C)CC2=O)cc2c(c1[N+](=O)[O-])C(C)(C)CC2(C)C	-1.1%	10%	0	6%
Cc1c(NC(=S)N/N=C/c2ccc(N(C)C)cc2)c(=O)n(-c2ccccc2)n1C	u	u	7	-2%
CCCCOc1ccc(C)cc1CN(CCO)CCO	-2.5%	2%	-16	1%
CNS(=O)(=O)c1cc(OCC(N)=O)c(C)cc1Cl	4.5%	-10%	-3	-5%
C=CCn1c(SCC(=O)Nc2ccccc2CC)nnc1-c1ccncc1	-0.4%	0%	1	0%
CC(C)Cn1c(=S)[nH]c2ccccc2c1=O	-1.0%	-11%	10	-2%

The closing 2 compounds of the section before come first, to join the parts.
SMILES	Rango complex inh	Rango release inh	GLA inh pH 4.5	miR-21 reporter
C=CCn1c(SCC(=O)Nc2ccccc2CC)nnc1-c1ccncc1	-0.4%	0%	1	0%
CC(C)Cn1c(=S)[nH]c2ccccc2c1=O	-1.0%	-11%	10	-2%
CCOC(=O)C(=N/O)/C(C)=N/NC(C)=O	-0.4%	10%	0	7%
COc1ccc(-c2cc(C(=O)Nc3c(F)cc(F)cc3Br)no2)cc1	1.6%	2%	x	-16%
COc1ccc(N(C(=O)c2snc(C(N)=O)c2N)C(C(=O)NC2CCCC2)c2ccco2)c(OC)c1 (stereo unspecified)	1.9%	-12%	x	6%
O=C(/C(=N/O)n1cncn1)c1ccccc1Cl	-2.1%	12%	0	0%
COc1cc(-n2c(=O)c3ccccc3n(CC(=O)OCc3ccccc3)c2=O)cc(OC)c1OC	0.2%	-6%	-2	1%
Cc1ccc2sc(N(CCN(C)C)C(=O)c3ccc4ccccc4c3)nc2c1C	-2.5%	-8%	x	-1%
O=C(COC(=O)CCC(=O)c1ccc2c(c1)OCCO2)NCc1ccc2c(c1)OCO2	-1.0%	0%	8	-9%
CC(C)(C)c1ccc(NC(=O)CSc2n[nH]c(=O)n2C2CC2)cc1	5.9%	9%	x	x
Cc1cc(NC(=O)CC2CCCC2)ccc1Br	u	-6%	x	-46%
COc1cc2c(cc1OC)C(C)N(C(=O)C(NC(=O)c1ccccc1)C(C)C)CC2 (stereo unspecified)	13%	11%	x	2%
CCN(CC)CCOCCOc1ccccc1F	-4.0%	1%	0	2%
Nc1nnnn1NCc1cccc(OCc2ccccc2)c1	7.5%	-22%	-6	-3%
C=CCn1c(SCC(=O)NCc2ccco2)nc2ccccc2c1=O	-2.3%	0%	-20	4%
COCC1CCN(Cc2c(C(=O)N3CCc4ccccc4C3)nc3ccc(Cl)cn23)C1 (stereo unspecified)	u	u	x	-12%
Cc1ccccc1N(CC(=O)NCc1ccncc1)S(C)(=O)=O	-1.2%	7%	6	0%
FC(F)(F)c1cc(-c2ccccc2)nc(-n2cncn2)n1	2.4%	-1%	-5	-11%
CCOc1ccc(/C=C/[N+](=O)[O-])c2ccccc12	0.5%	0%	0	u
COCCNCC(=O)Nc1ccc(C)c(S(=O)(=O)N2CCCCC2)c1	0.3%	7%	1	-6%
CC(C)[C@H](NS(=O)(=O)c1ccccc1)C(=O)Nc1ccccc1N1CCOCC1	-1.1%	0%	x	x

Single records, from the list above.
CC(C)[C@H](NS(=O)(=O)c1ccccc1)C(=O)Nc1ccccc1N1CCOCC1 is listed as Rango complex inh: -1.1%; Rango release inh: 0%; GLA inh pH 4.5: x; miR-21 reporter: x
COCCNCC(=O)Nc1ccc(C)c(S(=O)(=O)N2CCCCC2)c1 is listed as Rango complex inh: 0.3%; Rango release inh: 7%; GLA inh pH 4.5: 1; miR-21 reporter: -6%
